Screening data as filed in PubChem BioAssay.
HCMV UL50-53 inh: inhibitors of HCMV UL50-UL53 interaction, biochemical, HTRF | HCMV UL50-UL53 nuclear egress complex (human cytomegalovirus) | normalized percent inhibition | 190,000 tested, 0.15% active | inhibition, % (test concentration not listed);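 active = both replicates at 50% or more, plus weaker picks with an unusually low signal ratio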;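 also: stock transfer was 100 nL into about 20 µL; 0% = negative control wells and 100% = wells with untagged competitor protein; inactives centre near -12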
GIV-Gai inh: inhibitors of GIV peptide binding to Galpha-i3, primary screen, biochemical, fluorescence polarization, FITC-GIV GBA peptide, rat Galphai3; 90 min; active compounds read low; scaled: aluminum fluoride 0%, vehicle 100%; percent of control (FP), % (test concentration not listed); 210,000 tested, 0.42% active;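 active = replicate mean at 85% of control or lower, very high polarization wells dropped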;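 also: lower values mean more displacement of the GIV peptide from Galpha-i3; wells of about 15 µL received 100 nL stock; the first replicate is given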
Target sequence (P08753 whole entry, looked up): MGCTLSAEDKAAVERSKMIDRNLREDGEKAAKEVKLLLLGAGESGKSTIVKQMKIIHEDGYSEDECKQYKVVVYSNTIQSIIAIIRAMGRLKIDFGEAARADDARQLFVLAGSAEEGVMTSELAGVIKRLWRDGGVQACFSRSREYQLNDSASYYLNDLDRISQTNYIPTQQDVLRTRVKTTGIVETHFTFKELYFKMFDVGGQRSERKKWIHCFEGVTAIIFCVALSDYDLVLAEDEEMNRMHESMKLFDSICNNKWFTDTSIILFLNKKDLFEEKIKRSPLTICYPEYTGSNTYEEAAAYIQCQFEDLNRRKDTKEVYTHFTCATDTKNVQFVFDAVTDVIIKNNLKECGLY
Sa growth inh: S. aureus growth inhibition at 42 and 30 °C, primary screen, LtaS inhibitor project, RN4220, two temperatures | OD600, 20 h, 42 °C; active compounds read low | relative growth, % (no concentration beside the values) | 170,000 tested, 0.53% active | AID 720641, 2013;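 active = growth at 42 °C up to 50% and 20 or more points under that at 30 °C, or under 10% at both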;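 also: 300 nL library stock went into each well; scaled to the means of positive and negative controls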
Sa growth inh second temp: also measured in Sa growth inh; calls as there; relative growth, %; measured here: growth at 30 °C;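 optical density after 20 h as mean of two plates; 100% = untreated growth and lower means inhibition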
* marks the source's active call; other numbers are inactive results; . = no result given; & = joins results of further samples. An unsorted share of the library; 0.83% or so of the library scored in one or more.

SMILES	HCMV UL50-53 inh	GIV-Gai inh	Sa growth inh	Sa growth inh second temp
CN(C)c1cccc2c(Br)ccc(N(C)C)c12	-71	.	89	75
COc1ccc(CCNC(=O)Cn2nc(-c3ccc(Cl)cc3)c3c(C)onc3c2=O)cc1OC	-4	104	.	.
O=c1c(NCCC2=CCCCC2)nccn1-c1ccccc1	-27	120	105	101
O=C(O)c1cc(N2CCN(c3ccccc3Cl)CC2)ccc1NC(=O)C1CCC1	8	98	.	.
O=C(Nc1ccc(N2CCC(Cc3ccccc3)CC2)cc1C(=O)O)c1ccccc1Cl	-11	99	.	.
Cc1ccc(S(=O)(=O)CC(=O)N2CCCC2)cc1	3	99	90	90
O=C(COC(=O)c1cc(-c2ccccc2)nc2ccccc12)NCc1ccco1	-21	.	101	84
CCN1/C(=C2/SC(=S)N(N)C2=O)Sc2ccccc21	-10	126	100	94
COc1ccc(-n2c3c(cc(C(=O)NCCc4ccccc4)c2=O)C(=O)CC(C)(C)C3)cc1	-14	108&101	.	.
O=C(OCCCOc1ccc(F)cc1)c1ccc(-n2cnnn2)cc1	-10	.	84	95
C/C(=N\NC(=O)COc1cccc(C)c1)c1ccco1	-32	109	104	107
Cc1ccc(CNC(=O)CN2C(=O)COc3cc(S(=O)(=O)N4CCC(C)CC4)ccc32)cc1	.	101	107	89
Cc1c(Cl)c(=O)oc2cc(OC(=O)C(C)NC(=O)OCc3ccccc3)c(Cl)cc12 (configuration not stated)	-29	.	81	89
C=Cc1ccc(CSc2nc(-c3ccccc3Cl)nc3c2Cc2c(CO)cnc(C)c2O3)cc1	.	101	99	103
COc1ccc(NS(=O)(=O)c2cc(OC)ccc2NC(=O)c2cc(C)oc2C)cc1	-16	.	117	74
COc1ccc(-c2cc(C(=O)Nc3cccc(C(C)=O)c3)no2)cc1OC	0	99	89	90
Cc1ccc(N(C(=O)c2ccc(S(=O)(=O)N3CCCCC3)cc2)C2C=CS(=O)(=O)C2)cc1 (configuration not stated)	-6	100	.	.
Cc1ccccc1-n1nc(CO)c(C(=O)NCc2cccnc2)n1	-22	99	99	87
COCc1nnc(C(=O)Nc2cccc(C(=O)NCCc3c[nH]c4ccccc34)c2)s1	-11	102	.	.
Cc1ccc([N+](=O)[O-])cc1S(=O)(=O)Nc1ccc(-c2cn3ccccc3n2)cc1	-32	100	.	.
Fc1ccc(Nc2ncnc3onc(-c4ccc(Cl)cc4)c23)cc1Cl	-4	109	109	88
Cc1ccc(C)c(N2N=C(C(=O)OCn3nnc4ccccc4c3=O)CCC2=O)c1	-11	.	93	96
Cc1c(Br)c([N+](=O)[O-])nn1CC(=O)Nn1c(-c2ccc(F)cc2)nc2ccccc2c1=O	-25	105	.	.
O=C(NCc1ccc2c(c1)OCO2)C1CCN(c2cc(-c3ccccc3)ncn2)CC1	-46	103	.	.
Cc1cccc(NS(=O)(=O)c2ccc3c(c2)CCN3C(=O)C2CCC2)c1	-13	102	99	87

Reprinted from the part before: six entries, followed by the next part.
SMILES	HCMV UL50-53 inh	GIV-Gai inh	Sa growth inh	Sa growth inh second temp
Cc1ccc([N+](=O)[O-])cc1S(=O)(=O)Nc1ccc(-c2cn3ccccc3n2)cc1	-32	100	.	.
Fc1ccc(Nc2ncnc3onc(-c4ccc(Cl)cc4)c23)cc1Cl	-4	109	109	88
Cc1ccc(C)c(N2N=C(C(=O)OCn3nnc4ccccc4c3=O)CCC2=O)c1	-11	.	93	96
Cc1c(Br)c([N+](=O)[O-])nn1CC(=O)Nn1c(-c2ccc(F)cc2)nc2ccccc2c1=O	-25	105	.	.
O=C(NCc1ccc2c(c1)OCO2)C1CCN(c2cc(-c3ccccc3)ncn2)CC1	-46	103	.	.
Cc1cccc(NS(=O)(=O)c2ccc3c(c2)CCN3C(=O)C2CCC2)c1	-13	102	99	87
COc1ccc(C2C(C(=O)N3CC(C)CC(C)C3)CCC(=O)N2c2ccc(OC)cc2)cc1 (configuration not stated)	.	99	105	74
Cc1cc(C)c2c(CC(=O)Nc3nnc(C(C)C)s3)coc2c1	-14	108	117	85
CCCN(CC(=O)Nc1ccccc1C)C(=O)c1cn2ccccc2n1	-23	.	100	85
NNC(=O)COc1c(Br)cc(Br)c2cccnc12	-17	.	111	98
CC(C)(C)C1CCc2c(sc(NC(=O)c3ccc(Cl)cc3)c2C(=O)NCc2ccco2)C1 (configuration not stated)	14	102	107	101
CCOC(=O)c1cc(C)n(CC2CCC(C(=O)NCc3ccco3)CC2)c1C (configuration not stated)	-22	105	95	90
Cc1ccc(-n2nc(N3CCN(S(=O)(=O)c4cnc[nH]4)CC3)ccc2=O)cc1	-59	101	.	.
O=c1oc2ccc([N+](=O)[O-])cc2cc1-c1nnc(Nc2ccc(Cl)cc2Cl)s1	-7	103	.	.
Cc1c(Cc2ccccc2)c(=O)oc2cc(OC(=O)c3ccco3)ccc12	-2	96	86	68
N#Cc1cc(-c2ccccc2C(F)(F)F)no1	-13	107	88	71
N#CCCN1C(=O)c2cccc3c(Cl)ccc1c23	-34	.	103	83
CCOc1ccccc1NC(=O)C(C)n1nnc2sc3c(c2c1=O)CCCC3 (configuration not stated)	8&-13	104&106	85	92
COC(=O)CCNc1ccc2ccccc2c1	-40	102	108	74
CC(C)(C)NC(=O)CSc1nc2[nH]c(=O)cc(O)c2s1	5	105	84	96
O=C(CCCCl)Nc1ccc(C(O)(C(F)(F)F)C(F)(F)F)cc1	-3	.	100	93
COc1ccc(/C=C2\N=C(SC)NC2=O)cc1	.	101	99	75
O=C(O)c1ccc(/C=N/O)cc1	-29	.	85	86
Cc1c2ccc(Cl)cc2s[n+]1C	-3	99	14	26
CCOC(=O)NC(c1ccccc1F)C1CCc2ccccc2C1=O (configuration not stated)	-2	101	.	.
CCOc1cc(C#N)c(NC(=O)Cc2cccs2)cc1OCC	-22	100	114	82
CCOC(=O)CSc1nc(C)cs1	-7	.	96	89
CCCC(=O)Nc1ccc2oc(=O)ccc2c1	-16	.	107	87
COc1cc(C(=O)N(CCCN(C)C)c2nc3c(OC)cccc3s2)cc(OC)c1OC	.	101	107	104
CCCn1nnc(NC(=O)COc2ccccc2)n1	-15	.	114	87
Cc1ccc(Cn2cccc2CNS(=O)(=O)c2ccc(Br)cc2)cc1	-29	106	.	.

Seven entries from above, sorted by molar mass, lowest first.
SMILES	HCMV UL50-53 inh	GIV-Gai inh	Sa growth inh	Sa growth inh second temp
O=C(O)c1ccc(/C=N/O)cc1	-29	.	85	86
Cc1c2ccc(Cl)cc2s[n+]1C	-3	99	14	26
CCCC(=O)Nc1ccc2oc(=O)ccc2c1	-16	.	107	87
COc1ccc(/C=C2\N=C(SC)NC2=O)cc1	.	101	99	75
N#CCCN1C(=O)c2cccc3c(Cl)ccc1c23	-34	.	103	83
CCOC(=O)NC(c1ccccc1F)C1CCc2ccccc2C1=O (configuration not stated)	-2	101	.	.
O=c1oc2ccc([N+](=O)[O-])cc2cc1-c1nnc(Nc2ccc(Cl)cc2Cl)s1	-7	103	.	.

Remaining list, next part.
SMILES	HCMV UL50-53 inh	GIV-Gai inh	Sa growth inh	Sa growth inh second temp
Cc1[nH]c2ccccc2c1C(=O)CSc1nncn1C	-10	101	79	80
COc1ccc(C(CC(=O)N2CCOCC2)c2ccc(F)cc2)cc1 (configuration not stated)	-42	99	124	97
Nc1cc(=O)[nH]c(SCc2nc(-c3cccs3)no2)n1	-4	104	94	94
Cc1cc(C(=O)NC(C)C2CCCO2)c(C)o1 (configuration not stated)	5	103	95	101
Cc1ccc(CNC(=O)CN2CCCN(Cc3ccc(F)cc3)S2(=O)=O)cc1	.	104	107	89
O=C(CN(Cc1ccccc1)S(=O)(=O)c1ccc(Br)cc1)N1CCN(c2ccccc2)CC1	-10	94	.	.
COc1ccc(C2Nc3ccccc3C(=O)N2c2cccc3ccccc23)cc1COc1c(C)cccc1C (configuration not stated)	-7	104	.	.
COC(=O)C1=C(C)N=c2s/c(=C3\C(=O)N(C(C)=O)c4ccccc43)c(=O)n2C1c1ccc(OC)cc1 (configuration not stated)	10	110	.	.
CN(C)Cc1ccccc1CNC(=O)CC1C=CCC1 (configuration not stated)	-2	.	94	94
Cc1ccc(S(=O)(=O)Nc2ccc(-c3nnc4n3CCCCC4)cc2)cc1C	7	.	101	91
CN1CCN(C(CNS(=O)(=O)c2ccc3c(c2)OCCO3)c2ccc(N(C)C)cc2)CC1 (configuration not stated)	-10	98	.	.
OCCn1c(-c2ccccc2)nc2ccccc21	8	.	107	99
O=C(NCc1ccc(F)cc1Cl)c1cc(=O)[nH]c2ccc(S(=O)(=O)N3CCCCC3)cc12	.	109	127	82
COc1cc(C)c(C)cc1S(=O)(=O)Nc1ccc(-c2ccc(N3CCOCC3)nn2)cc1	-54	101	.	.
Cc1cc(-c2ccc(C)c(S(=O)(=O)Nc3cccc(C)n3)c2)on1	.	99	87	86
CCS(=O)(=O)c1nc(S(=O)(=O)c2ccc(C)cc2)c(NCC(C)C)s1	-18	106	107	93
c1ccc(CC(NCc2c[nH]c3ccccc23)c2ccccc2)cc1 (configuration not stated)	-5	101	84	81
Cc1ccnc(NS(=O)(=O)c2ccc(NC(=O)c3cc(-c4ccccc4)nc4ccccc34)cc2)n1	-8	102	.	.
Cc1ccc2nc(SCc3nc4cccc(C)n4c3Br)[nH]c2c1	.	105	103	92
COc1nc(N(C)C)nc(N(C)C)n1	16	107	110	112
COC(=O)c1nnn(CC(=O)N(c2ccccc2)c2ccccc2)c1C(=O)OC	-3	104	83	91
O=C1c2ccccc2C(Nc2ccc(S(=O)(=O)N3CCCCC3)cc2)N1Cc1ccco1 (configuration not stated)	-14	110	105	98
CC(=O)N(c1ccc(Br)cc1)C1C=CS(=O)(=O)C1 (configuration not stated)	.	100	95	95
O=C1c2ccccc2C(=O)N1CC(O)Cn1nnc2ccccc21 (configuration not stated)	-14	106	98	93
CC(NC(=O)CSc1nnc(-c2cc3ccccc3n2C)o1)c1nc2ccccc2[nH]1 (configuration not stated)	-4	97	.	.

Other records.
SMILES	HCMV UL50-53 inh	GIV-Gai inh	Sa growth inh	Sa growth inh second temp
COCc1c(C(=O)OCC(=O)c2ccc(OC(F)F)cc2)oc2ccccc12	6	.	96	100
Cc1ccc(S(=O)(=O)NC(=O)N2CCCN(C(=O)OC(C)(C)C)CC2)cc1	-36	105	78	80
COc1ccc(-n2cc(C(=O)N(C)c3cc(C)ccc3OC)c3ccccc3c2=O)cc1	.	103	96	102
Cc1nc(N2CCN(c3ccc(Cl)cc3)CC2)[nH]c(=O)c1C	-14	103	.	.
Cc1c(C(=O)O)sc2ncnc(N3CCCC3)c12	-21	107	99	68
O=C(C1Nc2ccccc2S(=O)(=O)N1)N1CCN(c2ccccc2)CC1 (configuration not stated)	-7	113	.	.
COC(=O)c1ccccc1NC(=O)CSc1ccccc1	-8	.	113	90
CCn1ccc2cc(S(=O)(=O)N3CCCN(C(=O)NCCOC)CC3)ccc21	.	100	76	90
Cc1nn(-c2ccccc2)c2sc(C(=O)NCc3ccccc3)cc12	-10	.	99	84
CCNc1sc2c(O)cc(=O)[nH]c2c1C#N	-17	110	89	66
CN(C)C1=NC(C(F)(F)F)(C(F)(F)F)N=C(c2cccnc2)O1	-16	104	95	85
CCn1c(=O)c(-c2ccc3ccccc3n2)cc2cc(Cl)ccc21	-6	.	86	91
CC(=O)N(C(C)=O)c1ccc(C)cc1	12	105	81	104
CN(C)Cc1ccccc1CN	-27	.	72	88
O=C1/C(=C/c2cn[nH]c2-c2ccccc2)Sc2ccccc21	-12	109	.	.
CSc1nnc2nc(C)cc(C)n12	.	102	119	89
CCC(=O)/C=C1/Sc2ccc(C)cc2N1CC	0	104	127	89
C=CCSc1nsc(N)n1	-36	107	115	81
CCSc1nc2[nH]c(=O)cc(O)c2s1	-21	110	89	88
CCn1c2ccccc2c2cc(CN3CCN(Cc4ccccc4C)CC3)ccc21	-48	105	85	76
CSc1ncn(-c2nc(N(C)C)nc(N3CCCCC3)n2)n1	8	103	.	.
COc1ccc(-c2onc(C)c2C)cc1S(=O)(=O)Nc1cccnc1	-8	99	.	.
CC1CCCC(C)N1C(=O)COc1ccc(C(=O)N/N=C/c2ccncc2)cc1 (configuration not stated)	-45	.	84	94
COc1cccc(NC(=O)Cn2nc(C)c3c(C)n(-c4ccccc4)nc3c2=O)c1	.	114	91	100
COc1ccc(-c2c[n+](=O)c3c(n2[O-])CCC3)cc1	-132	107	126	87

Next part:
SMILES	HCMV UL50-53 inh	GIV-Gai inh	Sa growth inh	Sa growth inh second temp
CCCNC(=O)c1[nH]c2ccccc2c1Sc1ccc(Cl)cc1	.	102	71	81
CC(=O)NC1C(Oc2ccccc2)OC(CO)C(O)C1O (configuration not stated)	-24	100	86	83
Cc1ccccc1CS(=O)(=O)Cc1ccc(C(=O)NCc2cccnc2)o1	1	99	110	71
C=CCn1c(=S)sc2c(SCC(=O)N3CCc4ccccc43)ncnc21	.	98	76	96
CCOC(=O)CN1C(=O)/C(=C2\SC(=S)N(NC(=O)c3cccnc3)C2=O)c2ccccc21	3	106	.	.
Cc1onc(-c2c(Cl)cccc2Cl)c1C(=O)N[C@@H]1C(=O)N2[C@@H]1SC(C)(C)[C@@H]2C(=O)O	-9&-17&-41	.	-0.4*	-0.7*
